Screening data deposited in PubChem by ICCB-Longwood Screening Facility, Harvard Medical School.
MgrA DNA FP: modulators of Staphylococcus aureus MgrA DNA binding | 84,000 tested, 0.13% active | AID 602314 | fluorescence polarization | inhibition, %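 (about 10 µg/mL by stock and volumes)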;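 active = above 50% in either of two replicates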;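 note: 0% = protein plus DNA without compound and 100% = DNA alone without protein; higher means less MgrA bound to DNA so lower polarization; one replicate is shown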
S aureus helic: blocks Staphylococcus aureus DNA helicase | purified S. aureus helicase, fluorescence unwinding assay; about half of the hits fall short of the stated cut | inhibition, %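 (tested at about 80 µM)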 | 120,000 tested, 0.05% active | AID 485395;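 active = both duplicates at 50% or more, or one of them with a favoured structure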;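 note: 0% = mean of negative control wells and 100% = mean of positive control wells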
Numbers without * were called inactive; . = not tested or not shown. This is a subset, so the mix of outcomes need not match the whole.

SMILES	MgrA DNA FP	S aureus helic
CCOc1ccc(/C(O)=C/C(=O)C(=O)Nc2ccc(S(=O)(=O)NC(C)=O)cc2)cc1	1.7	4
COc1cc(OC)c(/C=C2\C(=O)NC(=O)N(C3CCCCC3)C2=O)c(OC)c1	0.1	14
Cc1ccc(-c2cc(-c3ccccc3)c(C#N)c(SCS(=O)Cc3ccccc3)n2)cc1 (stereo not drawn)	1.6	8
O=C(O)C(Cc1ccccc1)N1C(=O)/C(=C/C=C/c2ccco2)SC1=S (stereo not drawn)	.	-3
COc1cc(N)c(/C(N)=N/O)cc1OC	.	12
CC(C)C(CC(=O)O)c1c[nH]c2ccccc12 (stereo not drawn)	-2.0	5
Cc1oc2c(c1C(=O)NC1CCCCC1)C(=O)c1ccccc1C2=O	.	-2
Cc1nn(-c2ccccc2)c2ncc(C(=O)c3ccccc3O)cc12	.	-8
CN=Cc1c(Cl)nc2sccn12	1.6	.
N#C/C(=C(/O)CSc1ccccn1)c1nc2ccccc2s1	.	1
CCCCC(=O)N1c2ccccc2NC2=C(C(=O)CCC2)C1c1ccccc1 (stereo not drawn)	1.9	4
Nc1n[nH]c(CCCO)n1	.	-1
COC(=O)CN1C(=S)N(Cc2ccccc2)C(=O)C1CC(=O)Nc1ccc(OC)cc1 (stereo not drawn)	0.1	3
CN(C)CCNC(=O)Cn1nc(C(F)F)cc1C1CC1	.	28
O=C(c1ccccc1Cl)N(Cc1ccccc1)c1ccccn1	-1.2	-12
CC(C)(C)c1cc(OC(=O)c2ccc(Cl)cc2)c(C(C)(C)C)cc1OC(=O)c1ccc(Cl)cc1	-1.2	.
CC(=O)N1CCN(C(=S)Nc2ccc(F)cc2)CC1	.	3
OCCNC(=S)NC1CCCC1	0.0	.
O=C(Nc1cccc(F)c1)c1ccc2ncsc2c1	.	-10
CCOC(=O)C1=C(C)N=c2s/c(=C/c3ccc4c(c3)OCO4)c(=O)n2C1c1ccc(OC(C)=O)cc1 (stereo not drawn)	1.8	.
CCN1CCCC1CNc1ccc(S(=O)(=O)N2CCCC2)cn1 (stereo not drawn)	.	-26
O=C(CCc1ccccc1)NCCc1nc2ccccc2[nH]1	-0.8	4
CC1=CC(C)C(/C=N/O)C(C)C1 (stereo not drawn)	0.8	7
O=C(CN1C(=O)c2ccccc2S1(=O)=O)NC1CC1	0.6	-17

Single records, from the list above:
`CC(C)(C)c1cc(OC(=O)c2ccc(Cl)cc2)c(C(C)(C)C)cc1OC(=O)c1ccc(Cl)cc1` is listed as MgrA DNA FP = -1.2; S aureus helic = .
`CCOC(=O)C1=C(C)N=c2s/c(=C/c3ccc4c(c3)OCO4)c(=O)n2C1c1ccc(OC(C)=O)cc1` (stereo not drawn) is listed as MgrA DNA FP = 1.8; S aureus helic = .

Going on with the list.
SMILES	MgrA DNA FP	S aureus helic
N#CC(C#N)=Cc1cccn1-c1ccc(S(N)(=O)=O)cc1	2.8	7
COc1ccc(-c2[nH]nc(-c3ccccc3)c2-c2ncc[nH]2)cc1	.	5
C=C(C)Cn1c(N)cc(=O)nc1SCC(=O)Nc1cccc(C(F)(F)F)c1	.	-26
CC(C)(C)C(=O)OCc1nc(-c2ccc(Cl)cc2)cs1	-1.6	.
O=C(CCn1c(=O)oc2ccccc21)NC1=NCCS1	.	-10
Cc1ccccc1OCC(O)Cn1ccnc1C (stereo not drawn)	.	6
COc1ccc(-c2csc(NC(C)=O)c2C(=O)O)cc1	-1.8	-1
O=C(c1ccccc1)c1nc2ccccc2[nH]c1=O	-0.2	-6
COc1cc2ccc(=O)oc2c(OC2OC(CO)C(O)C(O)C2O)c1O (stereo not drawn)	-1.0	6
c1cncc(-c2nc(-c3cccs3)cs2)c1	-7.8	8
O=C(Nc1cnn(Cc2ccc(F)cc2)c1)c1cc(-c2ccc3c(c2)OCO3)on1	.	8
NC(=S)CC(=S)N1CCOCC1	.	2
COc1ccc(C/C(=N/N=C(N)N)c2ccc(OC)cc2)cc1	.	7
CCOc1ccc(NC(=O)c2ccc(Br)o2)cc1	.	-13
O=S1(=O)CCC(NC(=S)SCCOc2ccccc2)C1 (stereo not drawn)	.	-7
C(#Cc1cncc(-c2nc(-c3ccccc3)no2)c1)c1ccccc1	-1.8	.
CN(C(=O)COC(=O)C1CC2C=CC1C2)C1CCCCC1 (stereo not drawn)	0.1	-13
CC(=O)NC1=NC(=O)/C(=C/c2cc3c(cc2Br)OCO3)S1	-0.9	.
FC(F)(F)c1cc(NC(=S)NC2CCCCC2)cc(C(F)(F)F)c1	-0.2	.
O=[N+]([O-])c1ccc(N2CCN(S(=O)(=O)c3ccc(F)c(Cl)c3)CC2)nc1	-1.0	.
O=C(N/N=C/c1cc(Cl)cc(Cl)c1O)N/N=C/c1cc(Cl)cc(Cl)c1O	5.6	.
CCOC(=O)CNc1nc2ccc(C)cc2n2cnnc12	1.6	15
CSc1nnc2c(n1)OC=Nc1ccc(Cl)cc1-2	0.8	10
COc1ccc(-c2nc(CNS(=O)(=O)c3ccc(NC(C)=O)cc3)cs2)cc1	-0.7	16
CNC(=O)NC(=O)Cn1cnc2sc(-c3ccccc3)cc2c1=O	-3.7	.
O=C(CCSc1nnc(-c2ccco2)o1)N1CCOCC1	-1.0	4
S=C(c1cccnc1)N1CCOCC1	4.8	16
O=C1S/C(=C/c2ccccc2)C(=O)N1CC(O)Cn1c2ccccc2c2ccccc21 (stereo not drawn)	-1.0	11
Cc1nonc1OCCN1CCN(c2cnn(-c3ccccc3)c(=O)c2Cl)CC1	0.2	1
CN(C)NC(=S)Nc1cccc(C(F)(F)F)c1	.	28
COc1ccc2c(NCC3=CC=CC3)cc(C)nc2c1	.	10
CC(C)OC(=O)n1c(=S)oc2ccccc21	5.2	4
Cc1cc(-c2cn3cc(Br)ccc3n2)c(C)n1Cc1ccco1	.	9
CSCC[C@@H](C(=O)O)N1Cc2ccccc2C1=O	.	-15
Cc1ccc(SCc2cc(=O)[nH]c(SCC(=O)n3c4ccccc4c4ccccc43)n2)cc1	2.2	6
C[C@@H]1CC2C3CCC4=CC(=O)C=C[C@]4(C)[C@@]3(F)[C@@H](O)C[C@]2(C)[C@@]1(O)C(=O)CO (stereo partly drawn)	1.3	.
CCCNC(=O)CN1C(=O)N(c2ccc(CC)cc2)S(=O)(=O)c2ccccc21	.	8
CCCNC(=O)c1cnn(-c2ccccc2)c1-n1cccc1	-1.1	3
O=C(Cn1c(-c2cccs2)cc2ccccc21)N1CCCCC1	2.8	2
CN(C)CCNC(=O)c1cc2c(s1)-c1ccccc1OC2	.	27
CN(CCOC(=O)C1c2ccccc2Oc2ccccc21)Cc1ccccc1	-9.1	9
FC(F)(F)c1ccc(N2CCN(Cn3nnc4ccccc43)CC2)nc1	1.3	.
COc1cc(-c2ccccc2)nc(N)n1	.	17
CC1CN(C(=O)CCn2c(=O)oc3ccccc32)CC(C)O1 (stereo not drawn)	-0.2	-6
CC(C)(C)c1ccc(N2C(=O)c3cc(Cl)c(Cl)cc3C2=O)cc1	0.1	.
CCN(CC)S(=O)(=O)c1ccc(N=c2ccccn2C)cc1	.	-5
C/C(=N\N)c1ccc(Cl)c(Cl)c1Cl	.	-1
O=c1c2c(nc3n1CCCS3)-c1ccccc1CC21CCCC1	-3.5	3
NC(=O)C1CCN(C(=O)/C=C/C(=O)O)CC1	-3.1	.
O=C(O)c1ccc2c(c1)OCCOCCOCCO2	-2.7	0
BrC12CC3CC(Br)(C1)CC(Br)(C3)C2	0.0	.
CCN1CCN(S(=O)(=O)c2c(C)c(C)cc(C)c2C)CC1	.	10
Cc1nc2ccccc2nc1CSCc1ccco1	7.1	4
CC(C)n1nc(C(=O)O)c2ccccc2c1=O	.	-7
O=C(CSc1ccc(F)cc1)NCCSc1ccccc1	3.0	.
CCC(=O)Nc1ccc(N2CCOCC2)cc1	.	-36
CC(C)(C)C(=O)c1cn(CC(=O)O)c2ccccc12	1.4	10
C[C@H](NC(=O)C12CC3CC(CC(C3)C1)C2)C(=O)O	.	-5
O=C(CNC(=O)Cc1ccccc1)NCc1ccco1	1.6	3
CCc1ccc(-c2nc(=S)n(CN3CCN(S(=O)(=O)c4cccs4)CC3)[nH]2)cc1	.	0
(next part)
SMILES	MgrA DNA FP	S aureus helic
CN(C)C=Nc1ccc(OC(F)F)c(Cl)c1	.	12
Cc1ccsc1CCNC(=O)CCc1nnc2n(CCc3ccccc3)c(=O)c3ccccc3n12	.	-36
COC(CNC(=O)c1ccc(/C=C2\Sc3ccccc3N(Cc3ccc(F)cc3)C2=O)cc1)OC	-2.5	9
N=C1/C(=C/c2ccc(OCc3ccc4c(c3)OCO4)cc2)C(=O)N=C2SC=CN12	.	19
COC(=O)c1cc2c(s1)CN(Cc1ccc(Cl)cc1)C2	1.2	13
O=C(OCCN1CCCCC1)c1ccc(Br)cc1	.	-2
O=C(N/N=C1\CCc2ccccc21)c1ccc(F)cc1	.	0
FC(F)(F)c1cccc(CSC(=S)NC2CC2)c1	0.8	.
CCN1CCc2nc3ccccc3c(C(=O)Nc3ccc(NC(C)=O)cc3)c2C1	.	-14
Cc1ccc(S(=O)(=O)N2CCN(C(=O)[C@@H]3CCCN3C(=O)OC(C)(C)C)CC2)cc1	.	28
CSc1nnc(CCCO)n1-c1ccc(Cl)cc1Cl	-2.8	.
Cc1cc(=O)n2cn[nH]c2n1	-1.1	.
NC(=S)C1(c2ccc(Cl)cc2Cl)CC1	-0.5	.
S=c1[nH]c2ccccc2n1Cc1ccccc1	7.8	14
COc1ccc(CN2CCN(C(=O)C3CCC(CNS(=O)(=O)c4ccc(C)cc4)CC3)CC2)c(OC)c1OC (stereo not drawn)	.	12
NC1=NNC(=O)/C1=C\c1cc([N+](=O)[O-])ccc1N1CCOCC1	0.0	.
Cc1cc(C(=O)COC(=O)C2=NNC(=O)CC2)c(C)n1-c1ccccc1	.	4
CCC(CC)c1nnc(NC(=O)c2ccc(CSc3ncn[nH]3)cc2)s1	.	-1
O=C(N=Nc1c2ccccc2c2nc3no[nH]c3nc12)c1ccccc1O	.	-28
O=C(Nc1ccc(F)cc1F)c1nccnc1Oc1cccc(C(F)(F)F)c1	-0.5	.
N=C1SCC(=O)N1c1ccc(Cl)cc1	1.8	-6
CCCNS(=O)(=O)c1cccc(C(=O)NCCc2ccccc2)c1	.	11
C=CCSC1=C(C#N)C(c2ccccc2)C(C(=O)OC)C(=O)N1 (stereo not drawn)	.	-8
COC(CN=Cc1c(O)[nH]c(=O)[nH]c1=O)OC	.	-8

Ordered by the number under S aureus helic (highest first): some entries from above
| canonical_smiles | MgrA DNA FP | S aureus helic |
| --- | --- | --- |
| CSc1nnc2c(n1)OC=Nc1ccc(Cl)cc1-2 | 0.8 | 10 |
| CCCNC(=O)CN1C(=O)N(c2ccc(CC)cc2)S(=O)(=O)c2ccccc21 | . | 8 |
| O=C(Cn1c(-c2cccs2)cc2ccccc21)N1CCCCC1 | 2.8 | 2 |

Carrying on.
SMILES	MgrA DNA FP	S aureus helic
O=C(C1CCN(c2ncnc3c2sc2cccc(F)c23)CC1)N1CCCC1	.	3
O=C(NCCC1=CCCCC1)C1CCCN(C(=O)N2CCOc3ccccc32)C1 (stereo not drawn)	.	16
CCOC(=O)c1c(NC(=O)COc2ccc(Cl)cc2)sc(C(=O)Nc2ccc(OC)cc2)c1C	-0.5	.
O=C(Cn1ncc2c(=O)oc3ccccc3c21)N1CCN(Cc2ccccc2)CC1	.	3
Cc1ccc(-c2ccc3ccccc3n2)o1	0.3	.
COc1ccc(NC(=O)CC(=O)CSc2ccccc2)cc1	1.4	-5
CCOCCOC(=O)C1=C(C)NC2=C(C(=O)CC(c3ccc(OC)cc3)C2)C1c1cc(Cl)c(O)c(OC)c1 (stereo not drawn)	-0.8	.
O=C1OC(c2ccccc2F)=N/C1=C\c1cccc(C(F)(F)F)c1	-0.5	13
CCOC(=O)c1ccc2nc(C(F)(F)F)cc(N3CCCCC3)c2c1	-0.6	.
COc1cccc(-n2c(Cc3cc(=O)[nH]c(=O)[nH]3)nnc2SCC(N)=O)c1	.	8
O=S(=O)(Nc1ccc2oc3c(c2c1)CCCC3)c1cccc2cccnc12	.	-30
NC1=NC2(CCCCC2)N(c2ccc(F)cc2)C(N)=N1	0.9	0

Ordered by SMILES length (rising): some entries from above
SMILES	MgrA DNA FP	S aureus helic
CC1=CC(C)C(/C=N/O)C(C)C1 (stereo not drawn)	0.8	7
CC(C)OC(=O)n1c(=S)oc2ccccc21	5.2	4
COc1ccc2c(NCC3=CC=CC3)cc(C)nc2c1	.	10
CN(C)CCNC(=O)c1cc2c(s1)-c1ccccc1OC2	.	27
CCC(CC)c1nnc(NC(=O)c2ccc(CSc3ncn[nH]3)cc2)s1	.	-1

Further entries follow.
SMILES	MgrA DNA FP	S aureus helic
CN(CCc1ccccn1)Cc1ccccc1	0.0	1
Cc1sc(Nc2ccccc2)nc1-c1ccc(-c2ccccc2F)cc1	2.2	.
CC(C)CC(=O)NN	.	-7
Cc1ccc(C(=O)N2CCOCC2)cc1	-1.6	-8
N#CC(C#N)=Cc1c(-c2ccccc2)nc2n1CCS2	.	21
COc1cccc(-c2noc(CCC(=O)N(C)C)n2)c1	.	-6
CCOC(=O)c1cnc(COc2ccc(OC)cc2)[nH]c1=O	.	-9
Cc1ccc(C(=O)CNC(=O)C2Cc3ccccc3C(=O)O2)cc1 (stereo not drawn)	-0.2	8
CCC1C(=O)N=C(SCC(=O)Nc2ncccn2)NC1=O (stereo not drawn)	.	6
CSc1cccc(NC(=O)c2sc3nc(C)cc(C)c3c2N)c1	-0.9	.
CCCCC/C=C\C/C=C\CCCCCCCCCC(=O)O	1.8	.
CCOC(=O)c1cc2c(oc1=O)c(I)cc1oc3c(c12)CCCC3	2.5	7
CC(O)CNc1nc2ccccc2n1CC(=O)N(Cc1ccccc1)C(C)C (stereo not drawn)	.	10
COc1ccc(-c2noc(CC(=O)NCCC(C)C)n2)cc1	-1.1	-2

Part of the list above, set out differently.
COC(=O)CN1C(=S)N(Cc2ccccc2)C(=O)C1CC(=O)Nc1ccc(OC)cc1 (stereo not drawn)
  MgrA DNA FP = 0.1
  S aureus helic = 3
O=C(N/N=C/c1cc(Cl)cc(Cl)c1O)N/N=C/c1cc(Cl)cc(Cl)c1O
  MgrA DNA FP = 5.6
  S aureus helic = .
